RanGTP-Impb inh – inhibitors of RanGTP-importin-beta interaction, primary screen, biochemical, FRET, CFP-Ran, YFP-importin-beta, homogeneous | cell-free CFP-Ran/YFP-importin-beta FRET ratio | inhibition, % (test concentration not listed) | AID 2216 | hit rate 1.1% among 300,000;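 active means most replicates above 15%; inconclusive means exactly half above 15%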;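 further: 0% = DMSO wells and 100% = Ran loaded with GDP instead of GTP; wells of about 40 µL received 100 nL stock; the first replicate is given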
Calb FLC – affects C. albicans growth with fluconazole; hit rate 0.57% among 300,000; growth inhibition, % (concentration not given with the values); C. albicans CaCi-2 (fluconazole-resistant clinical isolate) + fluconazole, Alamar Blue growth, 48 h; AID 1979;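 active means most replicates above 75%; inconclusive means exactly half above 75%; inactive means most below 75%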;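 further: all wells also contain fluconazole at 8 µg/ml as a sub-toxic cotreatment; 0% = median of DMSO wells and 100% = median of geldanamycin control wells; wells of about 8 µL received 7.5 nL stock; the first replicate is given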
Vif TR-FRET – inhibitors of Vif binding to APOBEC3G peptide, primary screen, biochemical, TR-FRET, GST-Vif 1-94, biotin-A3G peptide, dose response retest (AID 1117319); TR-FRET GST-Vif / biotin-A3G peptide binding; higher % means a stronger effect; test concentration not given here; strong numbers were not always called active; inhibition, %; hits with a dose series show IC50 in µM; hit rate 0.57% among 260,000;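 active means above the screen mean plus three standard deviations and confirmed in dose response; inconclusive means results disagree or hit not tested in dose response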;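 further: Vif residues 1-94 fused to GST binding biotinylated APOBEC3G peptide 110-148; 0% = full assay without inhibitor and 100% = GST in place of GST-Vif; retest series ran down from 100 µM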
A1 inh – inhibitors of the anti-apoptotic protein A1, read as caspase activation. MEF A1-2A-BIM cells, Caspase-Glo 3/7 luminescence, 3 h; percent of clofoctol response, vehicle zero. hit rate 0.066% among 330,000. caspase activation, % (test concentration not listed);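 active means over half of replicate activation scores above 10%, or exactly half above 10 with the replicate mean above 10; inconclusive means replicate mean below 10 yet half the replicates above 10; inactive means over half of replicates below 10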;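 further: wells of about 30 µL received 50 nL stock; many hits fall short of the cut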
AF4-AF9 inh – blocks AF4 peptide binding to human AF9; AlphaScreen, biotin-AF4 peptide binding to FLAG-AF9; inhibition, % at 10 µM; hit rate 0.47% among 350,000; AID 651704;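 active means every replicate reaching a set inhibition limit, whatever the replicate mean, cut at about 25% in these data; inconclusive means mean inhibition reaches that limit but some replicates miss it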;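 further: 0% = plate neutral control median and 100% = total signal loss; the record names both 10 and 1 µM as test concentration; the first replicate is given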
Target sequence (P42568 whole entry, looked up): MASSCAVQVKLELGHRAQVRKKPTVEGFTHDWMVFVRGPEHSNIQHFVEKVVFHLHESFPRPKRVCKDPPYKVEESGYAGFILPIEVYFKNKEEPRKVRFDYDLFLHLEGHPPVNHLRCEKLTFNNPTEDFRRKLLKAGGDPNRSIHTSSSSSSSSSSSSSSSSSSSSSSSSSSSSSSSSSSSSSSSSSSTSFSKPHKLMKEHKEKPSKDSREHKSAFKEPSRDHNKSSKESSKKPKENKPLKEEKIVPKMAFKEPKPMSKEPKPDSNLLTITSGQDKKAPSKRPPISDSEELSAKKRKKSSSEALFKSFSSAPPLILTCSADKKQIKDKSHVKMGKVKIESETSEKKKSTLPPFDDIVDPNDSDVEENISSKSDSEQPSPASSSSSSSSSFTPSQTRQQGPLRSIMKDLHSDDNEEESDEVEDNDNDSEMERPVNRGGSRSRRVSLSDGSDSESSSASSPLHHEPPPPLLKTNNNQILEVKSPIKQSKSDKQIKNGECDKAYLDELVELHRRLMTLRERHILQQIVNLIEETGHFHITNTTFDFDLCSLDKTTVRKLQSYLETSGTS
rRNA inh HTS – inhibitors of bacterial rRNA selective over humanized ribosomes. E. coli WT GFP vs humanized-ribosome RFP mutants, fluorescence, 24 h; hits give low values; DMSO median 0, no signal -100. GFP signal change (wild-type ribosome), % (concentration not given with the values). hit rate 1.6% among 350,000. AID 720706;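 active means significant combined selectivity score with lowered wild-type GFP, culture density cut under 30%, mutant RFP and density less affected; inactive means any of these conditions unmet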; further: one replicate is shown; some compounds called inactive have numbers as strong as hits
T cruzi repl – blocks replication of Trypanosoma cruzi; T. cruzi beta-gal in NIH3T3, luminescence, 90 h; inhibition, % (concentration not given with the values); hit rate 1.4% among 300,000; AID 1885;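 active means mean inhibition across valid replicates above about 55%, limit read from the data; inconclusive means mean below that limit but half or more replicates reach it; inactive means mean below it, under half of replicates reach it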;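 further: signal also drops with host cell toxicity which is not excluded here; 0% = plate median of DMSO wells and 100% = zero luminescence signal; higher percent means less beta-gal luminescence so fewer parasites; stock transfer was 50 nL into about 50 µL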
Beta apoptosis – beta cell apoptosis inhibition; INS-1E cytokine-induced death, ATP luminescence, 48 h; percent of positive-control rescue, neutral wells zero; hit rate 0.8% among 300,000; protection from apoptosis, % (no concentration beside the values); AID 435005;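 active means all replicates at 75% or more, or half of them and the mean; inconclusive means half reach 75% but not the mean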;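 further: 0% = cytokine-treated negative control wells and 100% = positive control rescue; higher means more ATP so stronger rescue from cytokine killing; wells of about 40 µL received 100 nL stock; the first replicate is given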
rRNA inh HTS OD600 – also measured in rRNA inh HTS; calls as there; OD600 change, %; measured here: OD600 growth;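 optical density of the mix in the first replicate; 0 = DMSO median and -100 = no signal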
rRNA inh HTS RFP – also measured in rRNA inh HTS; calls as there; RFP signal change, %; measured here: RFP humanized mutant strains;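 first replicate; 0 = DMSO median and -100 = no signal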
Numbers without * were called inactive; ? = inconclusive; . = no result given; & = joins results of further samples. An excerpt; the hit share may differ from the screen's.

SMILES | RanGTP-Impb inh | Calb FLC | Vif TR-FRET | A1 inh | AF4-AF9 inh | rRNA inh HTS | rRNA inh HTS OD600 | rRNA inh HTS RFP | T cruzi repl | Beta apoptosis
CC1(C)CC(NC(=O)c2cccc([N+](=O)[O-])c2)CC(C)(C)N1 | -1.5 | -10 | -6% | 0.9 | 0.3 | 13 | 1 | 0.2 | -3 | -1
COc1cc(C=O)ccc1OCc1cccc(Br)c1 | 1.1 | 0 | ? | -2.0 | . | . | . | . | -9 | .
CCOC(=O)CN(C(=O)COc1nc(C)cc(C)c1C#N)c1ccc(Cl)cc1 | 9.9 | 0 | -11% | 1.9 | -4.7 | -17 | -22 | 3.5 | 13 | -1
CCCn1c2ccccc2c2cnn(CC(=O)NC(C)CC)c(=O)c21 (stereo not given) | -6.1 | 1 | -7% | -1.2 | -8.9 | 3 | 5 | 1.8 | -3 | -9
CC(=O)NCC(=O)OC(C)C(=O)Nc1ccc(C(C)=O)cc1 (stereo not given) | -1.0 | 2 | 1% | -0.2 | . | . | . | . | 0 | .
O=C1OCc2cc(NS(=O)(=O)c3cccs3)ccc21 | -5.0 | 51 | -1% | -0.4 | 2.0 | 2 | -5 | -3.1 | -6 | -4
COc1cc(CNCCc2ccccc2F)ccc1OCc1ccc(Cl)nc1 | 0.3 | -11 | 67% | -0.2 | . | . | . | . | 47 | -3
CCN1C(=O)CSc2ccc(C(=O)NCc3ccc(OC)cc3)cc21 | 2.4 | 22 | 6% | 0.6 | . | . | . | . | 3 | -3
CCOC(=O)N1CCC(N2Cc3cccc(C(=O)N4CCN(c5cccc(Cl)c5)CC4)c3C2=O)CC1 | -5.7 | 23 | 7% | 2.0 | -1.0 | -10 | -11 | 0.1 | 39 | 0
Cc1cc(NC(=O)CSc2nnc(C3CC3)n2N)c([N+](=O)[O-])cc1C | 2.3 | -8 | 10% | -0.8 | 0.0 | -6 | -6 | -4.5 | -13 | -4
CCN(CC)C1CC(=O)N(c2ccc(Br)cc2)C1=O (stereo not given) | 2.4 | 2 | . | 2.2 | 0.3 | 5 | 3 | -1.5 | 8 | -4
CC(C)(C)Nc1ncnc2sc(-c3ccccc3)cc12 | 6.3 | -5 | -3% | 0.1 | -6.3 | -7 | -13 | 0.3 | 24 | 33
COc1cc(C(=O)Nc2ccc(S(=O)(=O)Nc3nccc(C)n3)cc2)c([N+](=O)[O-])cc1OC | 2.6 | -1 | 0% | 0.5 | -2.6 | 0 | -2 | -6.2 | -10 | 1
CC(=O)Nc1ccc(S(=O)(=O)N2CCC(C(=O)NCCc3c[nH]c4ccccc34)CC2)cc1 | 1.1 | 3 | -4% | -0.1 | -2.4 | -23 | -3 | -17 | -7 | -3
Cc1cc(C(=O)NCc2ccc(C(=O)O)o2)c(C)o1 | -2.9 | 31 | 31% | 0.4 | 1.3 | 31 | 15 | -0.3 | -3 | -1
O=C(Cn1cnc2c(oc3ccccc32)c1=O)c1ccccc1 | -1.9 | 14 | -15% | 0.5 | . | . | . | . | 3 | .
COc1ccc(C23CC4CC(CC(C4)C2)C3)cc1C(=O)NCCN(C)C | 4.2 | 11 | 4% | -0.1 | 12 | -51 | -65 | -14 | 14 | 20
CCOC(=O)c1cc2sccc2n1CC(=O)O | 3.0 | 6 | 21% | -0.3 | 4.5 | 13 | 6 | -3.5 | 3 | 0
CC1CCCCC1NC(=O)c1ccncc1 (stereo not given) | 3.9 | -14 | -8% | -0.2 | -6.4 | 11 | 7 | -2.8 | -20 | -3
COc1ccc(/C=N/NC(=O)c2ccc(-c3ccccc3)cc2)cc1O | -2.1 | 83* | 7% | 0.2 | -0.9 | -15 | -9 | -5.1 | -18 | .
OCCNc1nc(Nc2ccccc2Oc2ccccc2)nc(N2CCCC2)n1 | ? | -25 | . | -0.3 | 4.9 | -25 | -47 | 10 | 7 | 4
COc1ccc(S(=O)(=O)Nc2ccc3oc4ncccc4c(=O)c3c2)cc1OC | -2.3 | 5 | -7% | -0.6 | . | -4 | 4 | 4.4 | -12 | -11
COc1ccc(CN(CC(=O)NCc2ccco2)C(=O)CCC(=O)Nc2nccs2)cc1 | -1.1 | -3 | 13%&0% | -0.1 | . | . | . | . | 18 | -9
CC(C)CN(C(=O)c1cccc(S(=O)(=O)N2CCN(C)CC2)c1)C1CCS(=O)(=O)C1 (stereo not given) | . | -5 | 1% | 0.4 | -1.4 | -2 | 7 | -1.0 | -5 | -3
O=S(=O)(Nc1cccc(-c2cn3c(n2)SCC3)c1)c1cccs1 | ? | ? | 6% | 1.0 | 1.1 | -5 | -6 | -1.2 | 16 | 2
CCn1c(SCC(=O)NNC(=S)Nc2ccccc2)nnc1-c1ccc(Cl)cc1 | -2.0 | 40 | . | 0.4 | -2.8 | -2 | 0 | 0.7 | 1 | -1
O=S(=O)(c1ccccc1Br)N1CCC(O)(c2cccnc2)CC1 | 7.9 | 16 | . | -0.4 | 0.0 | -9 | -12 | -2.0 | 4 | -6
COc1ccc(OC2C(=O)N(Cc3ccc4c(c3)OCO4)C2c2cccs2)cc1 (stereo not given) | -4.8 | -23 | 13% | 0.8 | 1.8 | -22* | -13* | 3.2* | 27 | .
Cc1noc(C)c1CSc1nc2ccccc2c(=O)n1-c1ccc(F)cc1F | -0.6 | -4 | 7% | -0.3 | . | . | . | . | ? | 14
CCOC(=O)N1CCN(C(=O)c2ccc3oc(CCCc4ccccc4)nc3c2)CC1 | 0.5 | 4 | . | -3.7 | 0.8 | -12 | -12 | 3.0 | 6 | 0
CCOc1ccccc1N(C)C(=O)c1sc2ncn(CC(=O)N3CCCCC3C)c(=O)c2c1C (stereo not given) | 7.8 | 20 | . | -0.3 | -1.9 | -1 | 4 | 3.1 | 5 | 0
CCc1onc(C)c1C(=O)Nc1cc(C)ccc1OC | 2.2 | 0 | -4% | 0.9 | . | -1 | 0 | 5.0 | 8 | 1
CCOc1ccc(OCC)c2sc(C)nc12 | -2.5 | -4 | 1% | 0.5 | . | . | . | . | -5 | 1
CC(C(=O)NCC1(c2ccccc2)CCOCC1)N1CCOCC1 (stereo not given) | 9.5 | -9 | -2% | 0.3 | 0.3 | 18 | -4 | 2.6 | -13 | -4
COc1ccccc1-c1cc(C(F)(F)F)nc(S(=O)(=O)CCCC(=O)NC(C)C)n1 | ? | 9 | -9% | 8.5* | . | . | . | . | -42 | 11
O=C(Oc1cccc(OC(=O)N2CCCCC2)c1)N1CCCCC1 | -1.0 | -26 | . | -0.6 | -0.6 | . | . | . | 43 | -1
Cc1cccc(N=C2NC(=O)/C(=C/C=C/c3ccco3)S2)c1 | -4.9 | -25 | . | 0.0 | 0.8 | . | . | . | -11 | -2
Cc1ccc(Nc2cnn(C34CC5CC(CC(CC(=O)O)(C5)C3)C4)c(=O)c2Cl)cc1C | -1.3 | 9 | 97µM* | 1.8 | 4.1 | -1 | -6 | -9.8 | -1 | .
CCCNC(=O)CN(c1ccc(F)cc1)S(=O)(=O)c1ccc2c(c1)OCCO2 | 4.2 | -8 | 30% | -0.8 | 0.7 | -12 | 5 | 1.3 | 1 | -3
COc1ccc(OC)c(S(=O)(=O)N2CCN(c3ccc(F)cc3)CC2)c1 | -0.2 | 6 | . | -0.3 | 1.8 | 7 | 2 | -1.5 | 0 | 0
COc1ccccc1NC(=O)CNC(=O)c1ccccc1 | 2.1 | 5 | ? | 0.0 | . | . | . | . | -13 | 3
CCSc1nnc(-c2ccc(OC)cc2)o1 | -0.3 | 3 | -4% | -4.1 | . | . | . | . | -11 | -2
CC(=O)N(C)c1ccc(NS(=O)(=O)c2cc(Cl)ccc2Cl)cc1 | 10 | 0 | . | -0.8 | -4.0 | -4 | -2 | -2.7 | -8 | 6
Cc1sc2ncnc(SCC(=O)N(C(C)C)C(C)C)c2c1C | 0.1 | 19 | -3% | -0.7 | -2.0 | 5 | 7 | -0.6 | 18 | -1
COc1cc(/C=N/NC(=O)c2ccccn2)ccc1OC(=O)c1ccccc1Br | 3.0 | 23 | 8% | -0.8 | -2.1 | -14 | -27 | 3.4 | 4 | 4
O=[N+]([O-])c1ccc(/C=C2\CCC(C3=CCCC3)=C2N2CCOCC2)cc1 | -2.5 | -5 | ? | -0.1 | . | . | . | . | -16 | 4
CCn1c(COc2cccc(C)c2)nnc1SCC(=O)Nc1cccc(C(=O)OC)c1 | 5.3 | 4 | -3% | 0.4 | . | . | . | . | -2 | -13
O=S(=O)([O-])CCC[N+]1(CC#Cc2ccccc2)CCCCC1 | 4.9 | 3 | -4% | -0.5 | -2.2 | 20 | 18 | -0.7 | 7 | -7
COC(=O)c1ccc(COc2ccc(C=O)cc2OC)o1 | 1.9 | 4 | 10% | -0.3 | -20 | 3 | 3 | -7.3 | -20 | -3
CC(=O)c1ccc(Nc2ccc(-c3ccccc3F)nn2)cc1 | -15 | 7 | -6% | -1.7 | -1.3 | -1 | 16 | 40 | 3 | 1
CCCOC(=O)c1c(NC(=O)CCCn2nc([N+](=O)[O-])c(Cl)c2C)sc(C(=O)OC)c1C | 0.8 | 41 | -5% | 0.0 | . | . | . | . | 40 | 5
COc1cc(OC)c(S(=O)(=O)Nc2ccc(C(=O)O)cc2)cc1S(=O)(=O)Nc1ccc(C(=O)O)cc1 | -0.9 | 5 | . | 1.2 | -11 | 4 | 12 | -2.5 | -1 | -7
O=C(c1ccc([N+](=O)[O-])cc1[N+](=O)[O-])N1CCCC1 | -3.2 | 4 | 8% | 1.1 | -1.5 | 4 | 5 | -0.1 | 26 | -10
CC(C)COCc1ccc(O)c2ncccc12 | 7.3 | 98* | -4% | -1.1 | -2.5 | -35* | -24* | -9.4* | 52 | 89*
CN(C)S(=O)(=O)c1ccc(Cl)c(C(=O)Nc2ccc(S(=O)(=O)N3CCOCC3)cc2)c1 | ? | -4 | . | 0.1 | -5.6 | 0 | 1 | 1.6 | -4 | -3
CC(=O)Nc1ccc(S(=O)(=O)NCCC(=O)Nc2ccc(C)c(Cl)c2)cc1 | -1.2 | -3 | 19% | 0.8 | -5.9 | -5 | 6 | -3.5 | -8 | 2
Cc1occc1C(=O)N/N=C/c1cccs1 | 1.2 | -6 | -5% | -7.3 | -54 | 10 | 13 | -2.7 | -1 | .
CN(C(=O)COc1ccccc1)c1nc(-c2ccc(F)cc2)cs1 | 3.9 | ? | 5% | -0.6 | -5.1 | 1 | 4 | -0.1 | -6 | -4
CC1CCCC(NC(=O)C2COc3ccccc3O2)C1C (stereo not given) | . | . | 13% | 0.4 | -1.7 | 7 | 8 | 1.3 | . | -2
CCC(=O)Nc1ccc(C(=O)CSc2nc3ccccc3[nH]2)cc1 | -3.8 | -5 | 25% | 0.1 | -0.3 | -1 | 1 | -1.9 | -1 | 4

Screens deposited in PubChem by several laboratories.
